# Screening results deposited in PubChem by Broad Institute.
# NOMO-1 viab = NOMO-1 AML cell viability reduction, primary screen, STK33 inhibitor project, CellTiter-Glo luminescence. NOMO-1 AML viability, 72 h. 7.5% of 37,000 active. inhibition, % (test concentration not listed);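 active = most replicates above 80%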;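 also: wells of about 30 µL received 25 nL stock; 0% = median of vehicle wells and 100% = reference inhibitor level; the first replicate is given; inactives centre near 10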
# Active calls of the source: *. An excerpt (hit frequency here may not be typical).
Compound | NOMO-1 viab
N#Cc1cc2c(nc1SCC(=O)Nc1cc(C(F)(F)F)ccc1Cl)CCCCC2 | 37.3
OCc1nc2ccccc2n1CCOc1cccc(Cl)c1 | 24.7
COc1ccc(S(=O)(=O)N(C)C[C@@H]2Oc3ccc(NC(=O)Cc4cn(C)c5ccccc45)cc3CC(=O)N([C@@H](C)CO)C[C@@H]2C)cc1 | 9.2
Cc1noc(C)c1S(=O)(=O)Nc1ccc2c(c1)C(=O)N([C@@H](C)CO)C[C@H](C)[C@H](CN(C)Cc1ccc(C(F)(F)F)cc1)O2 | 8.0
Cc1noc(C)c1S(=O)(=O)Nc1cccc2c1O[C@H](CN(C)S(=O)(=O)c1ccc(F)cc1)[C@H](C)CN([C@@H](C)CO)C2=O | 67.3
Cc1ccc(S(=O)(=O)Nc2ccc3c(c2)C(=O)N([C@@H](C)CO)C[C@H](C)[C@@H](CN(C)Cc2ccccc2)O3)cc1 | 31.5
Cc1ccc(-c2nnc(N3CCN(C(=O)CSc4ncn[nH]4)CC3)c3ccccc23)cc1 | 38.2
C[C@@H]1CN([C@H](C)CO)C(=O)Cc2cc(NS(=O)(=O)c3ccc(Cl)cc3)ccc2O[C@@H]1CN(C)C(=O)Nc1ccccc1 | 29.6
O=C(NCc1cccnc1)c1cnn2c(C(F)(F)F)cc(-c3ccccc3)nc12 | 12.5
Cc1ccc(S(=O)(=O)N(C)C[C@H]2Oc3c(NC(=O)Nc4ccc5c(c4)OCO5)cccc3C(=O)N([C@@H](C)CO)C[C@@H]2C)cc1 | 25.9
C[C@H](CO)N1C[C@H](C)[C@H](CN(C)C(=O)Nc2ccccc2)Oc2c(NC(=O)C3CCCCC3)cccc2C1=O | 30.4
Cc1noc(C)c1NC(=O)Nc1ccc2c(c1)C(=O)N([C@@H](C)CO)C[C@H](C)[C@H](CN(C)S(C)(=O)=O)O2 | 4.0
COC(=O)c1ccc(NC(=O)CSc2nnc(-c3cccc(N)c3)n2C)cc1 | -2.8
Cc1cc2nn(-c3cccc4ccccc34)nc2cc1NC(=O)COc1ccc([N+](=O)[O-])cc1 | 29.2
COc1ccc(-c2nn(C)c(=O)c3ccccc23)cc1CNS(=O)(=O)c1ccc(Cl)cc1 | 36.8
C[C@@H]1CN([C@@H](C)CO)C(=O)c2cc(NS(=O)(=O)c3ccc(F)cc3)ccc2O[C@H]1CN(C)C(=O)Nc1ccc2c(c1)OCO2 | 21.7
C[C@@H]1CCCCO[C@H](CN(C)S(C)(=O)=O)[C@@H](C)CN([C@H](C)CO)C(=O)c2cc(NC(=O)Nc3cccc4ccccc34)ccc2O1 | 10.4
C[C@H]1CN([C@@H](C)CO)C(=O)c2cc(NS(=O)(=O)c3cn(C)cn3)ccc2O[C@H]1CN(C)CC1CCCCC1 | 0.9
C[C@H]1CN([C@@H](C)CO)C(=O)c2cc(NS(C)(=O)=O)ccc2O[C@H]1CN(C)Cc1ccc(-c2ccccc2)cc1 | 19.5
CCC(Oc1ccccc1)C(=O)Nc1cc2oc3ccccc3c2cc1OC (stereo unspecified) | 10.9
O=C(CC(c1ccccc1)c1ccccc1)Nc1ccc(Cl)cc1 | 44.0
C[C@H]1CN([C@@H](C)CO)C(=O)c2cccc(NS(=O)(=O)c3ccccc3)c2O[C@H]1CN(C)Cc1ccc(Oc2ccccc2)cc1 | 10.4
COc1ccc(OC)c(NC(=O)C2=C(C)NC(=O)NC2c2cccc(OC)c2OC)c1 (stereo unspecified) | 7.2
C[C@H]1CN([C@@H](C)CO)C(=O)c2cccc(N(C)C)c2O[C@@H]1CN(C)S(=O)(=O)c1cccs1 | 4.5
C[C@H]1CN([C@@H](C)CO)C(=O)c2cccc(NC(=O)Nc3ccc(F)cc3)c2O[C@H]1CN(C)Cc1ccc(C(=O)O)cc1 | 18.8
Cc1ccc(C2(CCNCc3ccco3)CCOC(C(C)C)C2)cc1 (stereo unspecified) | 60.4
COc1ccccc1-n1nnnc1SCC(=O)Nc1ccc(Br)cc1 | 20.5
C[C@H]1CN([C@@H](C)CO)C(=O)c2cc(NC(=O)Nc3ccc(F)cc3)ccc2O[C@@H]1CN(C)Cc1ccncc1 | 4.2
C[C@@H]1CN([C@H](C)CO)C(=O)Cc2cc(NC(=O)c3ccncc3)ccc2O[C@H]1CN(C)Cc1ccc2c(c1)OCO2 | 3.7
N#Cc1c(-c2ccccc2)nc(SCC(=O)Nc2cccc(C(F)(F)F)c2)[nH]c1=O | 29.9
Cc1onc(-c2c(Cl)cccc2Cl)c1C(=O)ON1C(=O)CCC1=O | 70.5
COc1ccc(-c2nnc3c4ccccc4c(C)nn23)cc1S(=O)(=O)NC(C)c1ccccc1 (stereo unspecified) | 6.7
N[C@@H](CO)CSCc1ccccc1 | 11.8
COC(=O)c1cc(OC)c(OC)cc1NC(=O)CN1CCCCC1 | -19.6
Cc1cc(C(=O)Nc2cccc3c2O[C@H](CN(C)C(=O)Nc2ccc4c(c2)OCO4)[C@@H](C)CN([C@H](C)CO)C3=O)n(C)n1 | 0.8
C[C@H]1CN([C@@H](C)CO)C(=O)c2cccc(NC(=O)C3CCCCC3)c2O[C@@H]1CN(C)Cc1ccc(Cl)c(Cl)c1 | 91.1*
Cc1ccc(C(=O)CSc2nc(C)nc3sc(C)c(C)c23)cc1 | -4.5
O=C(CN1CCN(S(=O)(=O)c2cccc([N+](=O)[O-])c2)CC1)Nc1ccc(F)cc1 | 16.1
Cc1noc(C)c1S(=O)(=O)Nc1ccc2c(c1)C(=O)N([C@H](C)CO)C[C@@H](C)[C@H](CN(C)Cc1ccc(C(=O)Nc3ccccc3N)cc1)O2 | 3.1
CC1CC(=O)C2=C(CCC3(O)C2C(=O)c2cccc(O)c2C3O)C1 (stereo unspecified) | 12.0
Cc1ccc(S(=O)(=O)N(C)C[C@@H]2Oc3c(NC(=O)Nc4ccccc4)cccc3C(=O)N([C@@H](C)CO)C[C@H]2C)cc1 | 31.5
COc1ccc(NC(=O)Nc2ccc3c(c2)C(=O)N([C@@H](C)CO)C[C@H](C)[C@H](CN(C)C(=O)Nc2ccccc2)O3)cc1 | -5.9
COc1cccc2oc3c(c(=O)c12)C(C(=O)O)=CC(CO)=CO3 | 7.5
COc1ccc(C2C(C(N)=O)=C(C)Nc3nc(SCc4ccccc4Cl)nn32)c(OC)c1 (stereo unspecified) | -9.7
O=C(CCN1C(=O)c2ccccc2C1=O)Nc1ccccc1C(=O)N1CCCC1 | 24.4
COc1ccc(Cl)cc1NC(=O)CSc1nnc(-c2cccc(C)c2)n1C | 3.5
O=C(CSc1nnnn1-c1cccc(C(=O)O)c1)Nc1ccccc1F | -16.2
C[C@@H]1CN([C@H](C)CO)C(=O)c2cc(NC(=O)Cc3ccccc3)ccc2O[C@H]1CN(C)C(=O)Nc1ccc(C(F)(F)F)cc1 | 21.6
C[C@H]1CN([C@@H](C)CO)C(=O)c2cc(NC(=O)c3ccncc3)ccc2O[C@H]1CN(C)CC1CCCCC1 | -3.9
COc1ccc(CN(C)C[C@@H]2Oc3ccc(NC(=O)NC4CCCCC4)cc3C(=O)N([C@H](C)CO)C[C@@H]2C)cc1 | 18.0
Cc1noc(C)c1NC(=O)N(C)C[C@H]1Oc2c(NS(=O)(=O)c3ccc(F)cc3)cccc2C(=O)N([C@H](C)CO)C[C@H]1C | 25.2
Cn1c(SCC(=O)Nc2cc(Cl)cc(Cl)c2)nnc1-c1ccc(Cl)cc1 | -22.5
COc1cc(OC)cc(C(C)(C)OC(=O)NN)c1 | 0.4
C[C@H](CO)N1C[C@H](C)[C@@H](CN(C)Cc2ccc(C(F)(F)F)cc2)Oc2ccc(NS(=O)(=O)c3ccccc3)cc2C1=O | 9.6
C[C@@H]1CN([C@@H](C)CO)C(=O)c2cc(NS(=O)(=O)c3cccs3)ccc2O[C@@H]1CN(C)Cc1ccc(Oc2ccccc2)cc1 | 38.6
COc1ccc(CN(C)C[C@H]2Oc3ccc(NC(=O)NC4CCCCC4)cc3CC(=O)N([C@@H](C)CO)C[C@@H]2C)cc1 | 23.2

# Next part
Compound | NOMO-1 viab
Cc1ccc(OCC(=O)Nc2cccc(-c3nnc(-c4ccccc4)o3)c2)cc1 | 12.2
C[C@@H]1CN([C@H](C)CO)C(=O)c2cccc(NC(=O)C3CCCCC3)c2O[C@@H]1CN(C)S(=O)(=O)c1cn(C)cn1 | 9.7
COc1cc(NC(=O)CSc2ncnc3sc4c(c23)CCCC4)cc(OC)c1 | -14.0
C[C@@H]1CN([C@@H](C)CO)C(=O)c2cccc(NC(=O)Nc3ccccc3)c2O[C@H]1CN(C)S(=O)(=O)c1ccccc1 | -5.0
C[C@H]1CN([C@@H](C)CO)C(=O)Cc2cc(NC(=O)Cc3cn(C)c4ccccc34)ccc2O[C@@H]1CN(C)C(=O)Nc1ccc(F)cc1 | -7.6
C[C@@H]1CN([C@H](C)CO)C(=O)c2cccc(NC(=O)Nc3ccc(F)cc3)c2O[C@@H]1CN(C)CC1CCCCC1 | 8.9
C[C@H](CO)N1C[C@H](C)[C@@H](CN(C)S(=O)(=O)c2ccc(Cl)cc2)Oc2ccc(NS(=O)(=O)c3ccc(Cl)cc3)cc2C1=O | 8.3
Cn1nc(-c2ccc(S(=O)(=O)N3CCCN(C(=O)OC(C)(C)C)CC3)s2)cc1C(F)(F)F | 51.4

# Exported with each value named: part of the list above
C[C@H](CO)N1C[C@H](C)[C@@H](CN(C)S(=O)(=O)c2ccc(Cl)cc2)Oc2ccc(NS(=O)(=O)c3ccc(Cl)cc3)cc2C1=O
- NOMO-1 viab: 8.3
C[C@@H]1CN([C@H](C)CO)C(=O)c2cccc(NC(=O)Nc3ccc(F)cc3)c2O[C@@H]1CN(C)CC1CCCCC1
- NOMO-1 viab: 8.9
Cc1ccc(OCC(=O)Nc2cccc(-c3nnc(-c4ccccc4)o3)c2)cc1
- NOMO-1 viab: 12.2
COc1cc(NC(=O)CSc2ncnc3sc4c(c23)CCCC4)cc(OC)c1
- NOMO-1 viab: -14.0

# Later entries.
Compound | NOMO-1 viab
Cc1cc(OCC(=O)Nc2cccc3ncccc23)ccc1Cl | 31.1
C[C@H]1CN([C@@H](C)CO)C(=O)c2cc(NC(=O)C3CCCCC3)ccc2O[C@@H]1CN(C)Cc1ccc(C(=O)O)cc1 | -3.3
Cc1cccc(NC(=O)c2cc(NC(=O)C3CCCCC3C(=O)O)ccc2N2CCOCC2)c1 (stereo unspecified) | -3.8
C[C@@H]1CN([C@H](C)CO)C(=O)c2cccc(NC(=O)c3ccc(-c4nccs4)cc3)c2O[C@H]1CN(C)S(=O)(=O)c1cccs1 | -6.1
C[C@H](CO)N1C[C@H](C)[C@H](CN(C)S(=O)(=O)c2ccc(Cl)cc2)Oc2ccc(NS(=O)(=O)c3cccs3)cc2CC1=O | 10.0
C[C@H](CO)N1C[C@H](C)[C@@H](CN(C)CC2CCCCC2)Oc2ccc(NC(=O)CCCN(C)C)cc2C1=O | -5.8
CCOC(=O)c1nnn2c3ccccc3c(=O)n(C)c12 | -3.5
C[C@@H]1CN([C@@H](C)CO)C(=O)c2cc(NC(=O)Nc3ccc(F)cc3)ccc2O[C@@H]1CN(C)S(C)(=O)=O | 4.8
COc1ccc(NC(=O)Nc2cccc3c2O[C@@H](CN(C)Cc2ccc(Oc4ccccc4)cc2)[C@@H](C)CN([C@@H](C)CO)C3=O)cc1 | 68.2
Cc1cc(Cl)ccc1OC(C)C(=O)Nc1ccc(C(=O)Nc2ccccc2C(=O)O)cc1 (stereo unspecified) | 5.5
Cc1ccc(S(=O)(=O)Nc2cccc3c2O[C@H](CN(C)C)[C@@H](C)CN([C@@H](C)CO)C3=O)cc1 | -24.1
CCc1ccc(C(=O)Nc2ccc(S(=O)(=O)Nc3nc(C)cc(C)n3)cc2)o1 | -3.8
COc1ccc(S(=O)(=O)N(C)C[C@H]2Oc3ccc(NC(=O)Nc4ccc(F)cc4)cc3CC(=O)N([C@@H](C)CO)C[C@@H]2C)cc1 | -14.5
Cc1cc(C(=O)Oc2c(C)cc(C(=O)O)c(O)c2C)c(O)c(C)c1O | 24.4
COc1ccc(S(=O)(=O)N(C)C[C@@H]2Oc3c(NS(C)(=O)=O)cccc3C(=O)N([C@@H](C)CO)C[C@@H]2C)cc1 | 19.4
CCC1(C)Cc2c(sc3nnn(CC(=O)Nc4ccc(OC)cc4OC)c(=O)c23)CO1 (stereo unspecified) | 13.2
CC(Oc1cccc(Br)c1)C(=O)NCc1ccco1 (stereo unspecified) | -4.7
C[C@@H]1CN([C@@H](C)CO)C(=O)c2cc(NS(=O)(=O)c3cccs3)ccc2O[C@H]1CN(C)Cc1ccc2c(c1)OCO2 | -4.9
O=C(CSc1ccccc1)Nc1ccc(C(=O)Nc2ccc(Br)cc2C(=O)O)cc1 | 15.9
C[C@H](CO)N1C[C@H](C)[C@H](CN(C)S(=O)(=O)c2cn(C)cn2)Oc2ccc(NS(C)(=O)=O)cc2C1=O | 8.3
C[C@@H]1CN([C@@H](C)CO)C(=O)c2cc(NC(=O)Nc3ccc(F)cc3)ccc2O[C@@H]1CN(C)S(=O)(=O)c1cccs1 | 14.5
COc1ccc(NC(=O)N(C)C[C@@H]2Oc3ccc(NS(=O)(=O)c4cccs4)cc3CC(=O)N([C@@H](C)CO)C[C@@H]2C)cc1 | 1.5
C[C@H]1CN([C@@H](C)CO)C(=O)Cc2cc(NC(=O)CCC(F)(F)F)ccc2O[C@H]1CN(C)S(=O)(=O)c1cccs1 | 30.3
C[C@@H]1CN([C@@H](C)CO)C(=O)Cc2cc(NS(=O)(=O)c3ccc(F)cc3)ccc2O[C@@H]1CN(C)Cc1ccc2c(c1)OCO2 | 47.0
C[C@@H]1CCCCO[C@H](CN(C)S(C)(=O)=O)[C@@H](C)CN([C@H](C)CO)C(=O)c2cc(NS(C)(=O)=O)ccc2O1 | -1.0
CCOC(=O)c1ccc(NC(=O)c2ccc(C(C)(C)C)cc2)cc1 | 32.7
O=C(Oc1ccccc1N(C(=O)c1ccccc1)S(=O)(=O)c1ccccc1)c1ccccc1 | 4.3
